From PubChem BioAssay
miR-21 FLuc: raises the signal of a miR-21 reporter; HeLa miR-21 FLuc reporter, luciferase, 48 h; Potency, µM (top dose mostly 38.3 µM), inactives show at the highest dose reporter change, positive = more light; 340,000 tested, under 10 active; AID 2288; active = well fitted rising curve with a large enough effect; inconclusive = small, poorly fitted or top-dose-only effect; inactive = no such curve, though single readings can be large or run the other way;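 further: % of control where 0% means no effect; miR-21 action dims this reporter so a rising signal means less miR-21 action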
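HeLa miR-21-FLuc reporter line, endogenous miR-21; 2000 cells/well in DMEM/10% FBS; compound titration up to ~40uM final, 48 h, 37 degree Celsius; luciferase detection reagent, 15 min lysis, CCD luminescence.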
Rango release inh: inhibition of RanGTP-driven Rango-importin beta dissociation | O95149+P62826 | Potency, µM (titrated, usually from 46.1 µM), without a hit: top-dose activity change, negative = inhibition | Biochemical FRET Rango-importin beta, RanGTP-induced dissociation | actives 0.071% (n = 340,000); active means falling FRET ratio curve, often poorly fitted, with flat reads before Ran was added; inconclusive means other falling curves, or compound fluorescence or quenching; inactive means flat or rising ratio curve;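 further: potency means the concentration at half of the fitted maximal effect; % of control where 0% means no effect; nearly all actives have a fitted effect of over 45% in size; -100% = wells without RanGTP and RCC1; the record marks most hits as doubtful in a second field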
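Rango (0.1 uM)–importin beta (0.25 uM) complex; RanGTP-RCC1 trigger; 45 min RT; CFP/YFP FRET read.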
Rango complex inh: inhibitors of Rango-importin beta complex formation | Q14974 | Rango CFP/YFP FRET sensor + importin beta, 45 min | Potency, µM (doses to about 92.2 µM), for the others: top-dose inhibition of complex formation | actives 0.031% (n = 340,000) | AID 540263; active = rising FRET ratio curve, often small or poorly fitted; inconclusive = mostly compound fluorescence or quenching in the first reads; inactive = flat curves in all reads;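 further: potency means the concentration at half of the fitted maximal effect; 0% = DMSO wells and 100% = buffer wells lacking importin beta; nearly all actives have a fitted effect of over 15% in size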
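FRET biosensor Rango (snurportin 1 IBB between N-terminal EYFP and C-terminal Cerulean), 50 nM in PBS/1 mM DTT/0.02% Tween-20/0.1% BSA, preincubated 5 min RT with compound; 0.125 microM importin beta added, 45 min RT, CFP/YFP FRET ratio read.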
GLA inh pH 4.5: inhibitors of human alpha-galactosidase A at pH 4.5; purified enzyme, 4-MU-alpha-Gal fluorescence, pH 4.5; activity change, negative = inhibition, % at 105 µM; 230,000 tested, under 10 active; AID 1467; inconclusive = small, poorly fitted or top-dose-only inhibition, or a rising curve; inactive = flat fitted curve, though single readings scatter; no compound was filed as active;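 further: 0% = full activity with enzyme and -100% = basal without enzyme; dose as in the result columns while the protocol names 77 µM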
Target sequence (P06280 whole entry, looked up): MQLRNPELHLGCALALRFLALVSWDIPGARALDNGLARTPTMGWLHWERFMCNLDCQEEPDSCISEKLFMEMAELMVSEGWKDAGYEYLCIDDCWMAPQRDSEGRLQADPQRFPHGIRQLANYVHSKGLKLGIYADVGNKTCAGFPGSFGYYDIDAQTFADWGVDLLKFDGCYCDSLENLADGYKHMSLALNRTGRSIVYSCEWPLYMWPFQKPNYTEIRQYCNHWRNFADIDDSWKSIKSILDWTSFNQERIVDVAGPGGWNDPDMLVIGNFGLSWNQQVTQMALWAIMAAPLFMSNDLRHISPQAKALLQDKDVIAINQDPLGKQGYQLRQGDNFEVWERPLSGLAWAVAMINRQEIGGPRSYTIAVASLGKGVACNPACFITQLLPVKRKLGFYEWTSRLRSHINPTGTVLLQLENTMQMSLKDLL
The depositor's hits bear a star; ? = inconclusive; nt = no result given; & = joins results of further samples. Some of the compounds tested; the hit share may differ from the screen's.

#	miR-21 FLuc	Rango release inh	Rango complex inh	GLA inh pH 4.5	SMILES
1	-3.6%	-1.7%	0.0%	3.5	CN(Cc1cnn(C)c1)Cc1nc(Cc2ccccc2Cl)no1
2	-1.1%	0.9%	-2.4%	6.5	O=C(c1ccco1)N1CCN(C2CC(=O)N(c3ccc4c(c3)OCO4)C2=O)CC1 (centres undefined)
3	nt	6.9%	2.5%	nt	O=C(CCNC(=O)c1ccco1)NCc1ccc(F)cc1
4	-0.3%	1.1%	-3.4%	-0.7	Nc1ccc(-n2ccnc2)cc1
5	nt	-0.9%	-1.7%	nt	O=C(COC(=O)c1ccc(F)c(S(=O)(=O)N2CCOCC2)c1)NCc1ccccc1
6	-4.1%	-8.9%	0.1%	0.9	O=C(CSc1nc(O)cc(=O)n1C1CCCC1)Nc1cccc(Cl)c1Cl
7	-1.1%	23.2%	-0.7%	nt	CCOc1ccc(-c2c(C(=O)N/N=C(\C)c3ccco3)nnn2-c2nonc2N)cc1
8	28.4%	-0.2%	-1.2%	-8.2	Cc1ccc(C(=O)N/C(=C/c2ccc(-c3cccc([N+](=O)[O-])c3)o2)C(=O)NCCCN(C)C)cc1
9	nt	-13.4%	?	nt	Cc1cnc(C(=O)OCC(=O)Nc2ccc(Cl)cn2)cn1
10	4.1%	0.3%	-1.3%	nt	COC(=O)N1C(=O)[C@](c2ccsc2)(C(C)C)N1C(=O)OC
11	18.8%	4.1%	?	0.6	CC(NC(=O)CCc1nnc(-c2ccc(-c3ccccc3)cc2)o1)c1nc2ccccc2[nH]1 (centres undefined)
12	2.1%	12.6%	1.7%	-1.3	COC(=O)c1cc(S(=O)(=O)N(C)C2CCCCC2)oc1C
13	11.4%	0.5%	-0.8%	4.1	O=C(CCc1c[nH]c2ccccc12)N1CCN(c2ccc(O)cc2)CC1
14	nt	1.0%	-0.6%	nt	CCOc1ccc(C(=O)NCC(=O)Nc2cc(C)ccn2)cc1OCC
15	-1.3%	14.9%	5.2%	3.5	Cn1ncc(Cl)c1C(=O)N1CCc2ccccc21
16	-1.3%	4.7%	-1.6%	-0.3	O=C1N/C(=N\N=C\c2cccs2)SC1Cc1cccc(Cl)c1Cl (centres undefined)
17	-4.8%	-12.7%	-1.4%	11.6	COc1ccc(OC)c(CN2CCN(S(=O)(=O)c3ccc(NC(C)=O)cc3)CC2)c1
18	nt	0.1%	0.1%	nt	Cc1ccc(N(Cc2ccccc2)C(=O)c2ccc(Cl)c(S(=O)(=O)N3CCOCC3)c2)cc1
19	1.0%	2.4%	-0.6%	0.5	CC(=O)Nc1ccc(S(=O)(=O)N2CCN(c3cnn(C)c(=O)c3Cl)CC2)cc1
20	-14.1%	0.7%	1.1%	2.1	Cc1cc(C)c(C(=O)CSc2nc(C)cc(C)c2C(N)=O)c(C)c1
21	-0.1%	-25.5%	?	nt	CCc1nnc(NC(=O)CCC(=O)NC2CCCC2)s1
22	-4.7%	2.3%	5.1%	-8.9	O=C(O)C1CC=CCC1C(=O)NCCc1ccccc1 (centres undefined)
23	-5.1%	9.3%	2.3%	4.4	CCOC(=O)CSc1nnc(-c2ccco2)n1C
24	nt	3.8%	1.6%	nt	Cc1cc(C)c(C)c(S(=O)(=O)N2CCC(C(=O)N3CC(C)CC(C)C3)CC2)c1C (centres undefined)
25	-7.1%	-14.4%	3.4%	-4.8	CN(C)c1ccc(C2C3=C(CCCC3=O)OC3=C2C(=O)CCC3)cc1
26	-41.1%	-10.7%	-2.3%	-3.2	CCc1ccc(-c2ccc(C(=O)O)c(C)n2)cc1
27	1.7%	3.9%	2.9%	12.9	O=C(COc1ccc2c(c1)C(=O)CC1(CCCCC1)O2)NCc1ccccc1
28	-4.9%	5.0%	-3.3%	nt	O=C(Cc1ccccc1)NCC(=O)N1CCc2ccccc2C1
29	-16.2%	2.7%	2.3%	-18.3	COc1ccc(-c2nc3ccccc3c(=O)n2NC(=S)N(C)C)cc1
30	-1.8%	0.0%	1.6%	-8.5	COc1ccc(NC(=S)N(Cc2cccc(Br)c2)CC2CCC(C(=O)O)CC2)cc1 (centres undefined)
31	-1.6%	?	5.7%	nt	OCCC1CN(Cc2ccc(F)cc2)CCN1CCCc1ccccc1 (centres undefined)
32	-5.7%	13.0%	-4.3%	4.1	CCOC(=O)CCNC(=O)Nc1ccc2nc(C)n(Cc3ccccc3Cl)c(=O)c2c1
33	-4.2%	1.3%	-6.4%	0.5	Cc1cccc(C(=O)NCCN2CCCC2)c1
34	-3.1%	1.2%	-0.7%	nt	CCOc1ccccc1N1CCN(C(=O)CNC(=O)c2sc3ccccc3c2Cl)CC1
35	-39.8%	-0.2%	-1.1%	nt	COc1cccc(/C=C2\SC(N3CCCC(C)C3)=NC2=O)c1OC (centres undefined)
36	27.5%	-3.5%	0.5%	-5.5	Cc1ccc2c(Cl)cc(Cl)c(OCC(=O)Nc3cc(S(=O)(=O)N(C)C)ccc3C)c2n1
37	18.3%	?	1.5%	-11.7	S=C(NCc1ccco1)Nc1ccc(Cl)c(Cl)c1
38	6.3%	-12.9%	0.7%	nt	CCN(CC)S(=O)(=O)c1ccc2oc(C(=O)NCCN3CCOCC3)c(C)c2c1
39	nt	8.5%	-0.7%	nt	NC(=O)Nc1ccc(C(=O)OCC(=O)NC2CCCc3ccccc32)cc1 (centres undefined)
40	0.1%	24.2%	?	nt	O=C(CC1C(=O)NCCN1Cc1ccccc1C(F)(F)F)NC1CCCCCC1 (centres undefined)
41	0.2%	-6.3%	-2.2%	-1.4	COc1ccc(NC(=S)N(CCCN2CCOCC2)Cc2ccco2)cc1
42	-20.9%	0.4%	1.5%	21.2	N#Cc1nc(-c2cccs2)oc1NCC1CCCO1 (centres undefined)
43	nt	-2.8%	1.6%	nt	CC(=O)N1C[C@H]2CON(C)[C@H]2C[C@H]1c1cccc(-c2ccccc2C)c1
44	-14.6%	0.1%	0.9%	6.9	Cc1ccc(SC[C@H](c2ccccc2)N2CCN(CC(C)C)CCC2=O)cc1
45	-10.5%	-0.2%	0.0%	5.7	C=CCn1c(SCC(=O)NCc2ccc3c(c2)OCO3)nc2scc(-c3ccccc3)c2c1=O
46	nt	5.4%	15.6%	nt	C#CCOCCOCCOCCNc1nc(N2CCN(C(=O)[C@H](CCCCN)n3cc(CN)nn3)CC2)nc(N2CCN(C(=O)[C@H](CCCCN)n3cc([C@@H](N)[C@H](C)CC)nn3)CC2)n1
47	-4.8%	-18.8%	1.3%	-2.4	Cc1cc(/C=C(\C#N)C(=O)NCc2ccco2)c(C)n1-c1ccc(C(=O)O)cc1
48	-8.0%	?	?	-10.6	O=C(CN1C(=O)c2cccc3cccc1c23)Nc1ccc(S(=O)(=O)N2CCOCC2)cc1
49	-41.0%	6.6%	-0.5%	nt	COc1cccc(/C=N/c2nc3ccccc3n2C)c1O
50	-0.2%	9.8%	1.3%	-9.4	N#CCCn1cc(C(=O)Nc2ccc(C(=O)O)cc2)c(-c2ccc([N+](=O)[O-])cc2)n1
51	nt	-3.0%	2.1%	nt	O=C(CSc1nc(=O)n(Cc2ccccn2)c2c1CCC2)Nc1ccc(F)cc1F
52	-9.2%	-12.9%	-2.1%	nt	CCCCc1ncc(CN2CCC(n3nccc3NC(=O)C(OC)c3ccccc3)CC2)[nH]1 (centres undefined)
53	nt	-2.1%	-1.0%	nt	Cc1cc(F)ccc1S(=O)(=O)N1CCCCC1CCNC(=O)C(=O)NCc1ccccn1 (centres undefined)
54	18.8%	10.5%	1.1%	-1.5	COc1ccc(N(C)S(=O)(=O)c2ccc(Cl)c(C(=O)NCCc3ccc(Cl)cc3)c2)cc1
55	-21.3%	3.8%	1.2%	7.7	NC(=O)NC(=O)Nc1ccccc1Cl
56	-4.8%	-9.8%	-0.2%	nt	NC(=O)C1CCN(C(=O)COc2ccc3c4c(c(=O)oc3c2)CCCC4)CC1
57	0.1%	10.4%	7.0%	3.1	O=C(c1ccccc1F)N1CCN(Cc2ccccc2F)CC1
58	-14.6%	1.8%	1.5%	-15.9	Cc1cc(C)cc(N2Cc3ccccc3C2)c1
59	-2.0%	-9.9%	0.3%	-0.9	COc1ccc(CCn2cc(C#N)c(=O)[nH]c2=O)cc1OC
60	-6.6%	4.8%	-3.1%	-4.9	CC1(C)CC(=O)C(C#N)=C(NCCCO)C1

Some of the entries so far, in transposed form.
24. Cc1cc(C)c(C)c(S(=O)(=O)N2CCC(C(=O)N3CC(C)CC(C)C3)CC2)c1C (centres undefined)
25. CN(C)c1ccc(C2C3=C(CCCC3=O)OC3=C2C(=O)CCC3)cc1
26. CCc1ccc(-c2ccc(C(=O)O)c(C)n2)cc1

screen / no.	24	25	26
miR-21 FLuc	nt	-7.1%	-41.1%
Rango release inh	3.8%	-14.4%	-10.7%
Rango complex inh	1.6%	3.4%	-2.3%
GLA inh pH 4.5	nt	-4.8	-3.2

The main list resumes, starting four compounds before the break.
#	miR-21 FLuc	Rango release inh	Rango complex inh	GLA inh pH 4.5	SMILES
57	0.1%	10.4%	7.0%	3.1	O=C(c1ccccc1F)N1CCN(Cc2ccccc2F)CC1
58	-14.6%	1.8%	1.5%	-15.9	Cc1cc(C)cc(N2Cc3ccccc3C2)c1
59	-2.0%	-9.9%	0.3%	-0.9	COc1ccc(CCn2cc(C#N)c(=O)[nH]c2=O)cc1OC
60	-6.6%	4.8%	-3.1%	-4.9	CC1(C)CC(=O)C(C#N)=C(NCCCO)C1
61	-8.6%	-9.2%	-2.2%	1.0	CCOc1ccc(-n2c(SCC(N)=O)nc3c([nH]c4ccccc43)c2=O)cc1
62	nt	-9.5%	-0.3%	nt	O=C(CCC1CCCC1)NCCS(=O)(=O)N1CCN(c2ccccc2)CC1
63	-13.3%	28.2%	-1.0%	13.2	CCCc1ccc(C(=O)NNC(=O)c2ccc(Br)cc2)cc1
64	nt	-15.5%	4.5%	nt	CC1CCCN(C(=O)C2CCN(S(=O)(=O)c3cccs3)CC2)C1 (centres undefined)
65	2.5%&6.4%&1.5%	9.1%&-13.2%&16.4%	2.0%&-3.6%&0.1%	4.0&-1.5&-2.0	Nc1ccc(S(=O)(=O)O)cn1
66	-19.5%	4.0%	-3.2%	-2.5	COc1ccc2c(c1)CCc1c(C(=O)NCc3cccnc3)noc1-2
67	-0.7%	22.6%	0.2%	8.7&-8.8	COC(=O)C1=C(C(=O)OC)[C@@H]2N(C)c3ccccc3[C@@]23C[C@@H](C(=O)OC)N=C3N1
68	1.2%	0.9%	?	-6.1	Cc1c(C(=O)OCc2nc3scc(-c4ccccc4)c3c(=O)[nH]2)cccc1[N+](=O)[O-]
69	-3.1%	-5.5%	-0.2%	5.0	Cn1c(N)c(N2CCN(c3ccccc3)CC2)c(=O)[nH]c1=O
70	-5.5%	1.0%	-5.9%	-4.7	O=C(CCCN1C(=O)c2ccccc2C1=O)NCc1cccnc1
71	-5.1%	1.0%	1.7%	-0.4	Cc1ccc(SCCC(=O)OCn2nnc3ccccc3c2=O)cc1
72	-0.1%	0.5%	5.6%	-9.1	CC1CC(C)CN(CC(=O)N2CCOCC2)C1 (centres undefined)
73	-28.4%	8.7%	0.3%	-2.8	CCC1Oc2ccccc2N(CC(=O)Nc2ccc3c(c2)OCCO3)C1=O (centres undefined)
74	nt	-1.0%	-4.7%	nt	COc1ccc(C(=O)NNC(=O)C23CC4CC(CC(C4)C2)C3)cc1OC
75	-3.4%	6.7%	0.7%	-6.5	O=C(CCSCc1ccccc1Cl)NC1CCCC1
76	-9.2%	9.9%	2.1%	-3.1	CCOC(=O)c1c(C)n(-c2ccccc2)c2ccc(O)cc12
77	-3.0%	-22.1%	0.3%	nt	CCn1c(=O)c2sccc2n(Cc2ccccc2)c1=O
78	2.8%	15.6%	1.7%	3.3	CN(C)C(=O)c1ccc(-c2nnc(NCc3ccccc3)c3ccccc23)cc1
79	-11.7%	1.7%	3.3%	-13.7	CCOC(=O)N1CCC(n2c(SCC(=O)Nc3ccccc3OC)nc3ccccc3c2=O)CC1
80	0.9%	3.7%	0.4%	2.3	O=C(/C=C/c1ccccc1)Nc1ccc(NC(=O)c2cccs2)cc1
81	nt	5.0%	6.8%	nt	C[C@H]1COC(=O)CCCC/C=C\C[C@H](CC(=O)N(CCO)Cc2ccccc2)C(=O)N1
